# NPYLR7 agonist: mosquito NPYLR7 agonism; activation, % at 10 µM; 0.15% of 270,000 active; HEK293T NPYLR7/Galpha15, GCaMP6s calcium fluorescence; AID 1259423; in the data active = activation above about 40%;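 note: 0% = vehicle and 100% = reference agonist at the receptor; some compounds past the cut are filed as inactive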
# NPYLR7 agonist max-min: also measured in NPYLR7 agonist; calls as there; activation, %; measured here: Max-Min RFU normalised activation; some inactives read as strong as hits;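 span of the calcium signal over five minutes; 0% = vehicle and 100% = native peptide agonist; compound fluorescence can raise it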
# An asterisk follows results filed as active; & = joins results of further samples. Only part of the results is shown; the hit share may differ from the screen's.
SMILES,NPYLR7 agonist,NPYLR7 agonist max-min
COc1ccc(-c2ccc(C(=O)N3CCCC3C)s2)c(OC)c1OC (centres undefined),3,6
CN1CC2(CCN(C(=O)c3ccc4c(=O)n(C)cnc4c3)C2)OC1=O (centres undefined),-2,-4
O=C(c1cnn2ccccc12)N1C[C@H]2C[C@H](C1)[C@@H]1CCCC(=O)N1C2,0,-12
O=C1OCc2ccc(CN3CCC(N4CCCC4=O)CC3)c3cccc1c23,7,4
Cc1cc(=O)[nH]c(-n2nc(C)c(CCC(=O)NCc3cc(-c4cccs4)on3)c2C)n1,9,4
Cc1c(O)cccc1C(=O)NCC1CCCN(Cc2ccccn2)C1 (centres undefined),-14,-11
COc1ccc(OC)c(-c2ccc(SCC(N)=O)nn2)c1,7,2
Nc1cc(-c2cccc(C(F)(F)F)c2)nn1-c1ccc(C(=O)NCCc2c[nH]c3ccccc23)cc1,-12,-19
COc1ccccc1NC(=O)Nc1ccc(N2CCCC2)c(C)c1,1,2
CC(=O)NCC(=O)NC1CCC(C)CC1 (centres undefined),2,-3
COC(=O)c1ccc(CNC2CCCN(CC3CCCCC3)C2)cc1 (centres undefined),0,-3
Cc1noc(C)c1C(=O)N1CCCC(C(=O)Nc2cccc(-c3ccc(F)cc3)c2)C1 (centres undefined),-6&4,-8&1
COc1ccc(C(C)n2c(C)c3c(C)nnc(C)c3c2C)cc1 (centres undefined),-3,-4
CS(=O)(=O)N1CCCC1C(=O)N(CC1CCCO1)c1nc2c(Cl)cccc2s1 (centres undefined),3,3
N#CC1C(=N)C(C#N)(C#N)[C@@H](c2ccc(Cl)cc2)[C@@H]2CSCC=C12 (some centres undefined),8,5
Cc1c(C(=O)Nc2ccccn2)sc2nc(-c3ccccc3)cn12,6,3
CN(c1ccc(F)c(F)c1)S(=O)(=O)c1cc(C(=O)O)ccc1Cl,-2,-3
COc1ccc(CCN(C)S(=O)(=O)c2ccc(OC)c(N3CCN(C(=O)c4cc(C)on4)CC3)c2)cc1OC,3,-1
COc1ccccc1CN(Cc1cccnc1)Cc1nccn1C,0,-7
COc1ccc(C(=O)N2CCN(c3ncccc3C(=O)NCc3cccs3)CC2)c(OC)c1,-6,-1
COc1ccccc1CN(C)C(=O)CS(=O)Cc1cccc(Br)c1 (centres undefined),5,3
O=C(c1coc(CN2CCN(c3ccccc3F)CC2)n1)N1CC=CC1,31,18
CS(=O)(=O)c1ccc(OCCNC(=O)Nc2ccccc2)cc1,4,3
CC(=O)NCc1ccc(S(=O)(=O)N(Cc2ccccc2)C2CC2)s1,2,-2
CC(=O)NCCNc1nc2cc(-c3ccsc3)sc2c(=O)n1C,4,0
SMILES,NPYLR7 agonist,NPYLR7 agonist max-min
Cc1ccc2nc(CN(C)Cc3cnc(N4CCOCC4)nc3)[nH]c2c1,5,4
CCOC(=O)CN1C(=O)CCN(C(=O)Cc2ccc(F)cc2)CC(OC)c2ccccc21 (centres undefined),2,2
Nc1ncnc(Oc2ccc(F)cc2)c1[N+](=O)[O-],-1,-1
O=C(CCC1CCN(C(=O)C2=CCCC2)CC1)Nc1ccc(F)c(Cl)c1,18,5
CN(C)c1nc(CNc2cccc(Cl)c2Cl)ns1,7,4
OCCC1CN(C/C=C/c2ccccc2)CCN1C1CCCCC1 (centres undefined),2,0
O=C(COc1c(F)c(F)c(F)c(F)c1F)N1CCN(c2nccc(-c3cccc(C(F)(F)F)c3)n2)CC1,9,0
CC1CCCN(Cc2nc3sc4c(c3c(=O)[nH]2)CCC4)C1 (centres undefined),6,12
N#Cc1ccc(-c2cccs2)nc1SCC(=O)c1ccc(Cl)cc1,-6,-12
FC(F)(F)c1ccc(CNc2nc(-c3cccc(Br)c3)nc3ccccc23)cc1,-1,2
COc1cc2nc(CSCC(=O)NCC(O)c3ccccc3)[nH]c(=O)c2cc1OC (centres undefined),1,9
O=C(CN1C(=O)CNC1=O)NC1CC(=O)N(Cc2cccc(F)c2)C1 (centres undefined),9,6
Cc1ccc(C=CC(=O)N2CCN(Cc3ccccc3)CC2)o1,6,8
O=C(OCc1ccccc1)C1=[N+]([O-])OC(C(=O)OCc2ccccc2)C1c1c[nH]c2ccccc12 (centres undefined),-12,-12
Cc1cc2nc(NC3CCS(=O)(=O)C3)c3ccccc3n2n1 (centres undefined),0,-2
CC(=O)Nc1cc(S(=O)(=O)N2CCC3CCCCC32)ccc1F (centres undefined),-23,-24
COC(=O)CN(Cc1ccccc1)C(=O)C(C)NC(=O)c1cccs1 (centres undefined),-6,-5
COCCCn1c(C)c(C)n2c3c(=O)n(CCN4CCOCC4)c(=O)n(C)c3nc12,-2,-4
CC(C)(C)OC(=O)N1CCN(Cc2c(O)ccc3ccncc23)CC1,6,4
CNC(=O)C1Cc2ccccc2N1C(=O)c1ccccc1S(=O)(=O)C(F)F (centres undefined),-3,-4
CCNC(=O)c1cc2c(=O)n3cccc(C)c3nc2n1C,4,1
O=C(CCn1cnc2ccccc2c1=O)Nc1ccccc1F,1,9
Cc1nc2ccc(CC(=O)NCc3nc(C4CCCCC4)no3)cc2[nH]1,9,7
CN(Cc1cc(Br)cc(Br)c1N)C1CCCCC1,-5,-11
CCCc1nc(C)sc1C(=O)NCCc1ccc(O)cc1,-1,-5

# Two neighbouring compounds already listed, quoted:
SMILES,NPYLR7 agonist,NPYLR7 agonist max-min
CC(=O)Nc1cc(S(=O)(=O)N2CCC3CCCCC32)ccc1F (centres undefined),-23,-24
COC(=O)CN(Cc1ccccc1)C(=O)C(C)NC(=O)c1cccs1 (centres undefined),-6,-5

# Ordered by heavy-atom count (descending): some entries from above.
SMILES,NPYLR7 agonist,NPYLR7 agonist max-min
COc1ccc(CCN(C)S(=O)(=O)c2ccc(OC)c(N3CCN(C(=O)c4cc(C)on4)CC3)c2)cc1OC,3,-1
O=C(COc1c(F)c(F)c(F)c(F)c1F)N1CCN(c2nccc(-c3cccc(C(F)(F)F)c3)n2)CC1,9,0
Nc1cc(-c2cccc(C(F)(F)F)c2)nn1-c1ccc(C(=O)NCCc2c[nH]c3ccccc23)cc1,-12,-19
O=C(OCc1ccccc1)C1=[N+]([O-])OC(C(=O)OCc2ccccc2)C1c1c[nH]c2ccccc12 (centres undefined),-12,-12
COc1ccc(C(=O)N2CCN(c3ncccc3C(=O)NCc3cccs3)CC2)c(OC)c1,-6,-1
CCOC(=O)CN1C(=O)CCN(C(=O)Cc2ccc(F)cc2)CC(OC)c2ccccc21 (centres undefined),2,2
Cc1cc(=O)[nH]c(-n2nc(C)c(CCC(=O)NCc3cc(-c4cccs4)on3)c2C)n1,9,4
COCCCn1c(C)c(C)n2c3c(=O)n(CCN4CCOCC4)c(=O)n(C)c3nc12,-2,-4
FC(F)(F)c1ccc(CNc2nc(-c3cccc(Br)c3)nc3ccccc23)cc1,-1,2
CS(=O)(=O)N1CCCC1C(=O)N(CC1CCCO1)c1nc2c(Cl)cccc2s1 (centres undefined),3,3
O=C1OCc2ccc(CN3CCC(N4CCCC4=O)CC3)c3cccc1c23,7,4
O=C(c1coc(CN2CCN(c3ccccc3F)CC2)n1)N1CC=CC1,31,18
Cc1c(O)cccc1C(=O)NCC1CCCN(Cc2ccccn2)C1 (centres undefined),-14,-11
Cc1c(C(=O)Nc2ccccn2)sc2nc(-c3ccccc3)cn12,6,3
COc1ccc(C(C)n2c(C)c3c(C)nnc(C)c3c2C)cc1 (centres undefined),-3,-4
Cc1cc2nc(NC3CCS(=O)(=O)C3)c3ccccc3n2n1 (centres undefined),0,-2
CCCc1nc(C)sc1C(=O)NCCc1ccc(O)cc1,-1,-5
CN(Cc1cc(Br)cc(Br)c1N)C1CCCCC1,-5,-11
CC(=O)NCC(=O)NC1CCC(C)CC1 (centres undefined),2,-3

# Further structures follow.
SMILES,NPYLR7 agonist,NPYLR7 agonist max-min
CCN(CC)c1ccc(N=Nc2nn[nH]n2)cc1,-1&18,-6&13
O=C(Cn1cc([N+](=O)[O-])cn1)NC1CCCCCC1,0,-3
CCOC(=O)c1cccnc1-c1cccc2ccnn12,10,3
CC(C)c1[nH]nc2c1C(c1c(F)c(F)c(F)c(F)c1F)C(C#N)C(=N)O2 (centres undefined),0,-2
CCNc1nc(NC(C)C)nc(N2CCCC2)n1,12,4
O=C(Nc1nnc(SCc2ccc(F)cc2)s1)c1ccc(F)cc1,21,25
Cc1cc(OCC(=O)N=Nc2c(O)n(CN(C)C)c3ccccc23)c(C(C)C)cc1Cl,7,5
CNC(=O)CSc1ncc(-c2ccc(OC)cc2)n1-c1ccc(Cl)cc1,2,7
COC(=O)c1ccc(COC(CN2CCN(C(=O)C3C[C@H]3c3ccccc3)CC2)c2cccc(OC)c2)cc1 (some centres undefined),8,3
O=C(NCC(=O)N1CCN(c2ccccn2)CC1)c1ccccc1,0,-2
Cc1ccc(F)c(NC(=O)CN2CCc3c(cnn3C(C)(C)C)C2)c1,1,16
O=c1c2nnc3c(-c4ccccc4)cnn3c2ccn1CCN1CCOCC1,-1,-3
COCCCn1cc(Br)cn1,19,9
CCS(=O)(=O)NCC(c1ccco1)S(=O)(=O)c1ccc(C)cc1 (centres undefined),-8,-8
Cc1cc(C(F)(F)F)nn1CC(=O)Nc1ccc([N+](=O)[O-])cc1Br,-5,-11
CN(CC1CCCO1)C(=O)NCc1cc(F)cc(Br)c1 (centres undefined),4,1
Cc1cc(O)c(C(c2cccc(Cl)c2)N2CCN(c3ccccc3)CC2)c(=O)n1Cc1ccco1 (centres undefined),8,2
O=C(CN1C(=O)c2ccccc2S1(=O)=O)c1ccc(Br)s1,10,6
CC(C)(C)c1cc(C[C@H]2CNCC[C@H]2CC(=O)NC2CCCCC2)no1,-8,-13
COCCCNC1CCS(=O)(=O)C1 (centres undefined),14,29
Cc1cc2c(SCC(=O)Nc3ccc(Cl)cc3)ncnc2s1,-7,-10
Cc1ccc(CNC(=O)Cn2c(CO)cnc2SCc2cc(C)ccc2C)cc1,11,6
Cc1nc(N2CCC(N3CCN(C/C=C/c4ccccc4)CC3)CC2)nc2ccc(F)cc12,27,12
CC(C)(C)N1CC(c2nc3ccccc3n2CCOc2ccccc2)CC1=O (centres undefined),3,-3
Cc1csc2nc(O)c(C(=O)NC3CCCC3)c(=O)n12,-2,18
SMILES,NPYLR7 agonist,NPYLR7 agonist max-min
N#Cc1ccc(CN2CCN(C(=O)CCNC(=O)c3ccc(Br)cc3)CC2)cc1,-7,-8
COC(=O)[C@@H]1C[C@@H](N(C)C)CN1C(=O)c1ncccc1OC,-5,-5
COc1ccc2c(c1)-c1nc(-n3ncc(C(=O)NCCCN4CCOCC4)c3C)ncc1CC2,0,-4
COc1cc(C2=NC(=Cc3ccco3)C(=O)O2)ccc1OC(F)F,7,6
Cc1csc(CN(C)C(=O)c2cc(C(C)C)on2)n1,10,1
COc1ccc(C(=O)Nc2ccccc2C2SCC(=O)N2c2cc(OC)ccc2OC)cc1 (centres undefined),10,6
CN(Cc1cscn1)C(=O)c1nn(CC2CC2)c2c1CN(C(=O)Cn1cnc3ccccc31)CC2,11,5
C=CCC1CC(=O)N(NC(=O)Cc2c[nH]c3ccccc23)C1=O (centres undefined),14,5
CCCc1cc(C(=O)N2CCCC(c3[nH]ncc3-c3ccccc3)C2)ccn1 (centres undefined),33,21
C=CCOc1c(Cl)cc(CN2CCN(c3cn[nH]c(=O)c3)CC2)cc1OC,7,4
Cc1nnsc1CN(C)C(=O)C1(c2cccs2)CC1(C)C (centres undefined),6,2
CCc1cc(NC(=O)C(=O)N2CCCC2c2ccco2)n(C)n1 (centres undefined),-1,-2
COc1cccc(C(=O)N2CCC3(CC2)OCC(C(=O)NCc2ccccc2)N3C(=O)c2ccc(F)cc2)c1 (centres undefined),-2,1
CCOC(=O)c1cnn(-c2ncnc3sc4c(c23)CCCC4)c1N=CN(C)C,12,9
CCC(NC(=O)c1ccc(CO)o1)c1nc(C)c(C)s1 (centres undefined),1,-10
N#Cc1cccc(OCc2cccc(C(=O)OCC3CCC(=O)N3)c2)c1 (centres undefined),11,10
O=S(=O)(c1ccc(Cl)cc1)N(O)c1ccc(Cl)cc1,9,8
CC(C)(C)c1ncc(C(=O)N2CCC(CN3CCCCC3)C2)s1 (centres undefined),1,0
C/C(=N\NC(=O)C1=NNC(c2ccccc2)(c2ccccc2)C1)c1ccc(-c2ccccc2)cc1,-2,-6
CC1(C)CC1(CNC1CCSCC1)c1ccccc1 (centres undefined),-3,-8
CCOC(=O)c1cnc(C)nc1NCCSCc1ccco1,23,20
CC(C)(C)c1cc(CN2CCN(S(=O)(=O)c3ccccc3)CC2)[nH]n1,-3,-8
Cc1ccc(Nc2nc3nonc3nc2N(C)C)cc1,-1,-2
Cc1noc(C)c1C(=O)N(Cc1ccsc1)CC1CCCO1 (centres undefined),-3,-6
CC(C)(C)c1ccc(CC(=O)N2CCC2(C)C(=O)NS(=O)(=O)c2ccc3c(c2)CCO3)cc1 (centres undefined),0,-2
SMILES,NPYLR7 agonist,NPYLR7 agonist max-min
CSc1ncc(CNCCc2cccc(Cl)c2)c(N2CCN(c3ccccc3F)CC2)n1,29,22
COc1cccc(C2C(=C(O)c3ccc(C)cc3)C(=O)C(=O)N2CCN(C)C)c1 (centres undefined),1,0
COc1cccc(C(=O)Nc2c3c(nn2C(C)(C)C)CSC3)c1OC,2,4
Cc1cc(CC(C)NC(=O)c2cc(COc3cccc(F)c3)[nH]n2)n[nH]1 (centres undefined),17,9
COc1cccc(Cn2c(C(=O)N3CCN(C(=O)COc4ccccc4)C(C)C3)cc3ccsc32)c1 (centres undefined),-1,0
COc1ccccc1C1NC(=O)N(C)C2=C1C(=O)N(CCC(=O)N1CCN(c3ccccc3F)CC1)C2 (centres undefined),0,0
COc1ccc([N+](=O)[O-])cc1NC1=NS(=O)(=O)c2cc([N+](=O)[O-])ccc21,1,-1
Cc1cnn(-c2cc(N/N=C\c3c(F)c(F)c(F)c(F)c3F)ncn2)c1,-1,-2
CCn1c(C2CCN(C(=O)Cc3ccccn3)CC2)nn(C)c1=O,7,4
CC(=O)c1c(C)[nH]c(-c2csc(N)n2)c1C,11,9

# Compound activity (PubChem)
